# Bead autofluor = flagged as autofluorescent in microsphere protease counterscreen; AID 624483; fluorescence intensity (no concentration beside the values); hit rate 3.1% among 360,000; compound autofluorescence counterscreen, microsphere flow cytometry; active compounds read high;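 active = at least 3 SD above the mean of all compounds, about 16000 in these data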;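 note: 100 nL of 1 mM stock went into each well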
# * = called active by the depositor. An excerpt (hit frequency here may not be typical).
Structure,Bead autofluor
O=S(=O)(c1ccccc1)N1Cc2ccccc2-n2nncc2C1,3766
Cc1ccc(C(O)c2ncc(-c3ccc(F)cc3)[nH]2)c(C)c1 (centres undefined),3983
Cc1ccc([C@H]2C[C@@H](n3cc(COC(=O)c4ccccc4)nn3)[C@H](O)CN2C(=O)c2cccs2)cc1,2883
C[C@@H]1CN([C@H](C)CO)C(=O)CCCn2cc(nn2)CO[C@H]1CN(C)S(=O)(=O)c1ccc2ccccc2c1,3472
CC1(C(=O)NS(=O)(=O)c2ccc(Cl)cc2)CCN1C(=O)C1CC1 (centres undefined),3524
CCCCC(=O)N(C)c1c(CC)nc2c(OCCC3CCCCC3)cccn12,3488
CCOc1ccc(-c2cc(C(=O)Nc3ccc(F)cc3)[nH]n2)c(C)c1,3700
CC1(C(=O)NS(=O)(=O)c2ccccc2Cl)CCN1C(=O)c1ccccc1CCc1ccccc1 (centres undefined),3583
CCc1nc2c(OCC(=O)C(C)(C)C)cccn2c1N(C)C(=O)Nc1ccccc1OC,2845
CCOC(=O)[C@]12CCC=C1N(CCC1=CCCCC1)C(=O)[C@H](CC(=O)N1CCCC1)C2,4503
Cc1ccc(S(=O)(=O)N2CC3(O)CN(C(=O)OC(C)C)N(C(=O)OC(C)C)CC3(OC(=O)NCc3ccco3)C2)cc1 (centres undefined),3926
CC(C)(C)n1nnnc1C(c1cc2ccccc2o1)N1CCCCC1 (centres undefined),5472
CSc1ccc(CN2CCC2(C)C(=O)Nc2ccc(C)c(O)c2)cc1 (centres undefined),3543
O=S1(=O)CC(N2CCCC2)CN1Cc1ccc(F)cc1 (centres undefined),5643
O=C(Nc1cccc(C(F)(F)F)c1)C1Cc2c(-c3cccc(F)c3)ccnc2O1 (centres undefined),3904
COc1ccccc1CNc1nc(NCCNC(C)=O)c2sccc2n1,3970
CCOc1ccc(-c2cc(C(=O)Nc3cc(OC)c(OC)c(OC)c3)[nH]n2)c(C)c1,2890
CSc1nsc(SC)c1-c1ccc(Cl)cc1,2892
CCc1nc2c(OCc3ccccc3)cccn2c1N(C)C(=O)COc1ccccc1,3865
COc1cccc(-c2cc(NC=O)c3ncc(-c4cccc(C(=O)N(C)C)c4)n3c2)c1,2999
CC(C)c1ccc(NC(=O)Nc2nc(C(C)N)cs2)cc1 (centres undefined),3255
CCCCCCNC(=O)O[C@@]12CN(S(=O)(=O)c3ccc(C)cc3)C[C@]1(O)Cn1c(=O)n(CCCCCC)c(=O)n1C2,3417
CC1(C(=O)Nc2cccc3c2CCCC3)CCN1C(=O)CCc1ccc(Cl)cc1Cl (centres undefined),3573
O=C(CSc1nnc(COc2ccc(Cl)cc2)o1)Nc1nccs1,3979
Nc1ncnc2c1ncn2[C@@H]1O[C@H](C(=O)N[C@H](CO)Cc2ccc(O)cc2)[C@@H](O)[C@H]1O,5540
C[C@H]1CNC(=O)c2c(C(=O)Nc3cccc(Cl)c3)ncn21,4010
CCCCCCN1C[C@@H](O)[C@H](n2cc(C3CC3)nn2)C[C@@H]1c1ccc(OC)cc1,3038
CCCS(=O)(=O)NC(=O)C1(C)CCCN(C(=O)/C=C/c2ccccc2)C1 (centres undefined),3020
COC(=O)[C@]12CCCCC=C1N(CCC1=CCCCC1)C(=O)[C@H](CC(=O)NCc1ccc(C)o1)C2,5419
O=C(Nc1ccc(C(=O)O)cc1)/C(=C\c1ccco1)NC(=O)c1ccc(Br)cc1,3038

# Continued, overlapping the part above by four compounds.
Structure,Bead autofluor
CCCCCCN1C[C@@H](O)[C@H](n2cc(C3CC3)nn2)C[C@@H]1c1ccc(OC)cc1,3038
CCCS(=O)(=O)NC(=O)C1(C)CCCN(C(=O)/C=C/c2ccccc2)C1 (centres undefined),3020
COC(=O)[C@]12CCCCC=C1N(CCC1=CCCCC1)C(=O)[C@H](CC(=O)NCc1ccc(C)o1)C2,5419
O=C(Nc1ccc(C(=O)O)cc1)/C(=C\c1ccco1)NC(=O)c1ccc(Br)cc1,3038
O=C(Nc1cccc(Cl)c1)c1ccc2sc([C@@H]3O[C@H](CO)[C@H](O)[C@H](O)[C@H]3O)nc2c1,3863
CN1CCN(c2ccncc2S(=O)(=O)N2CCCC2)CC1,3799
CCOC(=O)C1(C)CCCN1C(=O)c1c(F)cccc1F (centres undefined),4006
COc1ccc(OC)c(NC(=O)C2(C)CCN2Cc2ccsc2)c1 (centres undefined),3542
CCOC(=O)[C@]12CCCC=C1N(Cc1ccc(Cl)cc1Cl)C(=O)[C@H](CC(=O)NCc1cccs1)C2,4246
C[C@H](CO)N1C[C@H](C)[C@@H](CN(C)Cc2cccc(O)c2)OCc2cnnn2CCCC1=O,2742
COc1ccc(NC(=O)C2(C)CCCN(C(C)=O)C2)cc1F (centres undefined),3508
Cc1c(C(=O)NCCC#N)sc(=O)n1Cc1ccccc1F,5091
COCOc1cccc(CN2CCC(C)(Oc3ccc(SC)cc3)C2)c1 (centres undefined),3014
COc1ccc(CN2C(=O)CCC2(C)c2nnnn2-c2c(C)cccc2C)cc1OC (centres undefined),5979
COC(=O)c1ccc(CNC(=O)c2ccc(OC)c(S(=O)(=O)NC3CC3)c2)cc1,4365
COC(=O)C=CSC(=S)C1CCCC1=N (centres undefined),3671
O=C1C=CN(C2OC(CO)C(O)C2O)C(=O)C1 (centres undefined),3759
O=C(Nc1ccc(Cl)cc1)C1Cc2c(-c3ccccc3Oc3ccccc3)ccnc2O1 (centres undefined),3691
CC1=C(C(=O)N2CCOCC2)CC(CC(=O)NC2CCCC2)C(=O)N1Cc1ccc(F)cc1 (centres undefined),3430
O=C(Cc1ccc(Cl)cc1)N/N=C/c1ccc(O)c(O)c1,4246
COC(=O)c1ccc(CN2C(=O)C(Cc3ccccc3)ON=C2c2ncccc2C)o1 (centres undefined),4973
C[C@H]1CN([C@@H](C)CO)C(=O)c2cc(-c3ccccc3F)cnc2O[C@@H]1CN(C)C(=O)NC1CCCCC1,3489
COc1ccc(CCN2CC(C(=O)NCCCc3ccncc3)CCC2=O)cc1 (centres undefined),2910
O=C(NCc1ccco1)c1cccc(-c2ccc3nccn3c2)c1,4078
COCCC(=O)N1CCOCC1c1cc(C(=O)NCc2ccccc2)no1 (centres undefined),3847
CC(=O)N(C)C[C@@H]1Oc2ncc(Br)cc2C(=O)N([C@H](C)CO)C[C@@H]1C,3598
Cc1ccc(S(=O)(=O)N2C[C@H]3C(=O)C[C@@H]4C(=O)N(c5ccccc5)C(=O)[C@@H]4[C@@H]3C[C@@H]2c2ccccc2)cc1,4276
Cc1cccc(C)c1NC(=O)C1c2ccccc2OCC(=O)N1Cc1ccco1 (centres undefined),5262
COCCOC(=O)N1CCCCC1c1cc(C(=O)Nc2cccc3c2CCCC3)no1 (centres undefined),3874
CN1CCCCC1(C)C(=O)NCc1ccc(F)cc1 (centres undefined),2839
CC1(c2nnnn2Cc2ccccc2)CCC(=O)N1CCCN1CCOCC1 (centres undefined),5947
CCCc1nc2c(Cl)cc(C(F)(F)F)cn2c1Cc1ccc(OC)cc1C,5889
COc1ccc(C(c2nnnn2-c2ccc(OC)cc2)N2CCN(C/C=C/c3ccccc3)CC2)cc1 (centres undefined),6342
COc1cccc(-c2ccccc2C2=CC(=O)CC(C)(C)C2=O)c1,3768

# A stretch of the results above, as a working copy:
Structure,Bead autofluor
COCCOC(=O)N1CCCCC1c1cc(C(=O)Nc2cccc3c2CCCC3)no1 (centres undefined),3874
CN1CCCCC1(C)C(=O)NCc1ccc(F)cc1 (centres undefined),2839
CC1(c2nnnn2Cc2ccccc2)CCC(=O)N1CCCN1CCOCC1 (centres undefined),5947
CCCc1nc2c(Cl)cc(C(F)(F)F)cn2c1Cc1ccc(OC)cc1C,5889
COc1ccc(C(c2nnnn2-c2ccc(OC)cc2)N2CCN(C/C=C/c3ccccc3)CC2)cc1 (centres undefined),6342
COc1cccc(-c2ccccc2C2=CC(=O)CC(C)(C)C2=O)c1,3768

# More entries.
smiles,Bead autofluor
O=c1c2ccccc2c2ccccc2c(=O)n1Nc1ccccc1,3525
Cn1cc(-c2csc(C(O)c3ccc(F)cc3)n2)cn1 (centres undefined),2765
FC(F)(F)c1ccccc1Cc1c(-c2ccccc2)nc2ccc(Br)cn12,5022
Cc1ccc(F)c(S(=O)(=O)NC(=O)C2(C)CCN2C(=O)c2ccco2)c1 (centres undefined),3864
COc1cc(C(=O)NN=Cc2ccc(N(C)C)cc2)cc(OC)c1OC,3437
CC(C)(C)C(=O)OCc1ccc(C2=CC(=O)CC(C)(C)C2=O)cc1,3657
O=C(NCCc1ccc(O)cc1)c1[nH]c(C(F)(F)F)nc1-c1ccccc1,5700
C[C@H]1CN([C@@H](C)CO)C(=O)CCCn2nncc2CO[C@@H]1CN(C)Cc1cccc(C(F)(F)F)c1,2751
COc1cc(CCN(C(=O)c2cc3ccccc3[nH]2)C(c2ccccn2)c2nc3ccccc3[nH]2)cc(OC)c1 (centres undefined),4265
CC(=O)Nc1cccc(-c2ccnc3c2CC(C)(C(=O)Nc2ccc(C(C)C)cc2)O3)c1 (centres undefined),3457
CC1(C(=O)NS(=O)(=O)c2ccc3ccccc3c2)CCN1C(=O)C1(c2ccc(Cl)cc2)CCC1 (centres undefined),3403
CN(NC(=O)C(=O)NCc1ccco1)C(=O)Nc1ccc(Cl)cc1,5854
NC(=S)c1csc(CCNC(=O)c2ccccc2)n1,2971
C[C@H](CO)N1C[C@H](C)[C@@H](CN(C)C(=O)Nc2ccnc(N3CCOCC3)c2)OCc2cnnn2CCCC1=O,3304
Cn1nc(C(C)(C)C)cc1C(=O)N1CCCCC1c1cc(C(=O)Nc2ccc(F)c(Cl)c2)no1 (centres undefined),3330
C#CCN(C[C@@H]1[C@@H](OC(=O)NCc2ccccc2)[C@@H](OC(=O)NCc2ccccc2)Cn2c(=O)n(CCCCCC)c(=O)n21)S(=O)(=O)c1ccc(C)cc1,3731
CC(=O)c1ccc2c(c1)N(Cc1ccc3ccccc3c1)C(=O)C(C)S2 (centres undefined),3426
CC(C)C[C@H]1COc2cccc(N3CCN(C)CC3)c2S(=O)(=O)N1,4483
CCN(CC)C(=O)C1=C(C)N(Cc2ccc(F)cc2)C(=O)C(CC(=O)NCc2ccco2)C1 (centres undefined),3633
O=C(Nc1ccc2c(c1)OCCO2)C1c2ccccc2OCC(=O)N1Cc1ccccc1 (centres undefined),5524
Clc1cccc(-c2nc3c4ccccc4ccn3c2Cc2ccsc2)c1,4465
CC1C(=O)N(Cc2cn(CCC3OCCO3)nn2)CCS(=O)(=O)N1Cc1ccc(-c2ccccc2)cc1 (centres undefined),3581
CCN1C(=O)[C@H]2[C@@H](c3ccc(C(F)(F)F)cc3)N[C@]3(CCCN(Cc4ccc(C(F)(F)F)cc4)C3=O)[C@H]2C1=O,2871
Cc1cccc(NC(=O)Nc2nnc([C@@H]3C[C@H](O)[C@@H](CO)O3)s2)c1,3998
CN1OC[C@@H]2CN[C@H](c3ccc(-c4cc5ccccc5o4)cc3)C[C@@H]21,3915
O=C(NCCN1CCC(n2c(=O)[nH]c3ccccc32)CC1)c1ccc(Cl)cc1,5905
O=C(N=Nc1c(O)[nH]c2ccc(Br)cc12)c1ccco1,3355
CCCCN1C[C@H](c2ccc(OC)cc2)[C@@H](CC(=O)Nc2ccc(OC)cc2)C1=O,3022
CC(C)CNC(=O)C1(C)CCCN1Cc1ccc(OC(F)(F)F)cc1 (centres undefined),3426
C[C@H](CO)N1C[C@H](C)[C@H](CN(C)Cc2cccc(F)c2)Oc2ncc(Br)cc2C1=O,3340
COc1cc(NC(=O)c2cccc3c(-c4cnn(C)c4)coc23)cc(OC)c1OC,3955
C#CCNC(=O)c1ccc2sc([C@H]3C[C@H](O)[C@@H](CO)O3)nc2c1,2917
Cc1cccc(-c2nc(CCNC(=O)c3ccco3)cs2)c1,3813
CC(C)C1C(=O)N(Cc2cn(CCC3OCCO3)nn2)CCS(=O)(=O)N1Cc1ccc(-c2cccc(CO)c2)cc1 (centres undefined),3769
CC(C)(CNC(=O)c1cccc(S(=O)(=O)N2CCCCC2)c1)N1CCOCC1,2716
Cc1ccc(S(=O)(=O)N2[C@H](c3cccc(Cl)c3)CC(=O)[C@@H]3CN(S(=O)(=O)c4ccccc4C)[C@H](c4ccc(Cl)cc4)C[C@@H]32)cc1,2930
CC1=C(C(=O)N2CCOCC2)CC(CC(=O)NC2CCCCC2)C(=O)N1CCCN1CCCC1=O (centres undefined),3615
Cc1cc(C)cc(Cn2cc(CN3CC(N(C)C)CS3(=O)=O)nn2)c1 (centres undefined),4167
CC(C)c1cccc(-c2csc(C(C)(O)c3ccc(F)c(F)c3)n2)c1 (centres undefined),4075
CC(C)C(=O)N1CCCC1(C)C(=O)Nc1ccccc1 (centres undefined),3700
CC(=O)OC[C@@H]1CN(Cc2ccccc2)C[C@H](n2cnc3c(N4CCN(c5ccccc5)CC4)ncnc32)O1,4000
C[C@@H]1CN([C@@H](C)CO)C(=O)CCCn2nncc2CO[C@@H]1CN(C)S(=O)(=O)c1ccc(F)cc1,3805
N#CC(c1ccc(N)cc1)C(CC(=O)c1ccccc1)c1ccccc1 (centres undefined),3523
COc1ccc(NC(=O)C2(C)Cc3c(-c4ccc5c(c4)OCO5)ccnc3O2)cn1 (centres undefined),3436
CCOC(=O)C1=CCN(S(=O)(=O)c2ccccc2)C1c1ccc(C)cc1 (centres undefined),4835
COc1cc(OC)cc(C2=Cc3ccccc3C(CC(=O)c3ccco3)N2c2ccc(-c3cnc(OC)nc3)cc2)c1 (centres undefined),5227
CC(C)C(=O)N1CCCC1(C)C(=O)Nc1ccc(-n2cncn2)cc1 (centres undefined),4255
CC(C)CNC(=O)C1(C)CCCCCN1C(=O)c1cc2ccccc2s1 (centres undefined),4057
CCOC(=O)CNC(=O)N(C)[C@H]1C[C@H]2c3[nH]c4ccccc4c3CCN2C[C@H]1[C@H](C)O,8525
CCNC(=O)C1(C)CCCN1C(=O)c1c(F)cccc1F (centres undefined),3074

# Assay outcomes: PubChem BioAssay, NMMLSC
